Compound activity deposited in PubChem by ICCB-Longwood Screening Facility, Harvard Medical School.
AID504770 – growth inhibition of E. coli YBA685, primary screen, V. cholerae RctB inhibitors; E. coli YBA685 rctB-dependent plasmid, OD600 growth, 3 h; stronger effect = lower value; z-score (no concentration beside the values); 130,000 tested, 0.27% active;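 active means z-score under -2 on both plates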;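 further: wells of about 30 µL received 100 nL stock; score is relative to mean and SD of the test wells; the first replicate is given; strong numbers were not always called active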
CapD inh – Bacillus anthracis CapD inhibitors, primary screen, biochemical, fluorescence intensity. purified CapD enzyme, fluorescence intensity read-out; stronger effect = lower value; some hits fall short of the stated cut. z-score (concentration not given with the values). 140,000 tested, 0.23% active. AID 492967, 2010;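 active means z-score under -4 in either of two replicates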;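 further: stock transfer was 100 nL into about 40 µL; score is relative to mean and spread of the plate; one replicate is shown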
Active calls of the source: *; i = inactive; . = not tested or not shown; & = joins results of further samples.

SMILES | AID504770 | CapD inh
N#CCCCn1c(-c2ccc(Cl)cc2)noc1=O | -0.2 | .
COc1ccc(N2CCN(c3ccc(OC)cc3)C2c2cc(OC)ccc2O)cc1 | 0.7 | .
O=C(OCN1C(=O)c2ccccc2C1=O)C1CCN(S(=O)(=O)c2ccc(Cl)cc2)CC1 | 0.3 | .
CCN(Cc1ccccc1)C(=O)COC | 0.65 | 0.66
CC(C(=O)c1ccccc1)C1(O)C(=O)Nc2ccc(Br)cc21 (stereo not given) | . | -0.125
CC(C)(C)c1cc(C(=O)O)n[nH]1 | -1.15 | -0.895
COC(=O)c1c[nH]n2c(=O)c(C(C)C)c(C)nc12 | 0.5 | -1.1
CC(C)Cn1c(=S)[nH]c2ccccc2c1=O | 1.15 | -0.085
Cc1c(N=NC2=C(O)CC(C)(C)CC2=O)cc2c(c1[N+](=O)[O-])C(C)(C)CC2(C)C | . | -0.65
CCc1ccc(-c2nc(SCC(=O)N3CCCC3=O)n[nH]2)cc1 | 2.8 | .
CCOc1ccc2[nH]c(=O)c(CN(CCc3ccccc3)C(=O)N(C)C)cc2c1 | -1.15 | .
Cc1cc(S(=O)(=O)NCc2csc(-c3cccs3)n2)c(C)s1 | 0 | 49.7
O=C(c1ccc(-n2cnnn2)cc1)N1CCN(C(c2ccccc2)c2ccccc2)CC1 | 1.1 | .
N#CCc1nc(-c2ccccc2)cs1 | . | 0.645
O=c1[nH]c(=S)c2c(n1N1CCOCC1)CCC2 | -0.65 | -4.99*
CN(C)C(CNC(=O)c1ccc(-c2ccccc2)cc1)c1ccco1 (stereo not given) | 0.2 | .
CN1CCc2c(sc3c2C(=O)NC(c2cccc(O)c2)N3)C1 (stereo not given) | 1.6 | 0.35
Cc1cc(=O)[nH]c(SCC(=O)NCCCc2ccccc2)n1 | -0.9 | .
CCOC(=O)c1ccc2nc(C(F)(F)F)cc(N3CCN(Cc4ccccc4)CC3)c2c1 | . | 3.48
COc1cccc(NC(=O)CSc2nc3ccccc3c(=O)n2CCC(=O)NCCc2ccc(OC)c(OC)c2)c1 | . | 0.62
NC(=S)N/N=C1/C2C3CC4C1C1C2CC3C41 (stereo not given) | -0.5 | .
COc1ccccc1N1CCN(C(=O)CSc2nc3ccccc3c(=O)n2NC(=O)c2ccccc2)CC1 | . | 0.29
Cc1cc(=O)oc2cc(OCC(O)CN3CCc4ccccc4C3)ccc12 (stereo not given) | -0.6 | .
N#CCCNC12CC3CC(CC(C3)C1)C2 | 0.9 | .
OC(CN1CCC(c2nc3ccccc3o2)CC1)c1ccccc1 (stereo not given) | -0.85 | .

The closing two compounds of the part before come first, to join the parts:
SMILES | AID504770 | CapD inh
N#CCCNC12CC3CC(CC(C3)C1)C2 | 0.9 | .
OC(CN1CCC(c2nc3ccccc3o2)CC1)c1ccccc1 (stereo not given) | -0.85 | .
COc1ccc(-c2nc(SCC(=O)N3CCCC3)n[nH]2)cc1 | -0.75 | .
COc1ccc(OC)c(CN2CCC(NS(=O)(=O)c3cccc(C)c3)C2)c1 (stereo not given) | . | 1.05
Cc1cc(C(=O)COC(=O)c2ccccc2S(C)=O)c(C)n1CCC1=CCCCC1 (stereo not given) | -0.25 | .
Cc1noc(C)c1CSc1ncccc1C(=O)NCCc1c[nH]c2ccccc12 | -0.5 | .
c1ccc(-c2csc3c4ncnc-4ncn23)cc1 | 0.95 | 0.245
O=c1oc2ccc3ccccc3c2cc1-c1csc(Nc2ccc(Oc3ccc4ccccc4c3Cl)c(Cl)c2)n1 | . | 1.6
COc1ccc(NC(=O)C2CCC(Cn3c(=S)[nH]c4ccsc4c3=O)CC2)cc1 (stereo not given) | 1.4 | -1.92
Nc1nc2c(-c3ccc(Cl)cc3Cl)nnn2c2cc(C(F)(F)F)cnc12 | . | 0.67
Cc1ccc(OCc2nc(C#N)c(NCCN(C)C)o2)cc1 | -0.2 | 0.17
COc1ccc(C(=O)C2CC2)cc1 | 0.55 | 0.135
O=C(c1ccc(CS(=O)(=O)c2ccc(Br)cc2)o1)N1CCN(c2ccc(Cl)cc2)CC1 | 1.95 | -1.91
Cc1ccc2c(c1)C(C)(c1ccccc1)CC(C)(C)N2C(=O)CSc1nncn1C (stereo not given) | . | -0.41
COC(=O)c1ccc(-c2ccco2)n1CC(=O)Nc1cccc(C)c1C | -0.6 | 5.87
C[N+]1(CCOC(=O)C2(c3ccccc3)CCCC2)CCCCC1 | -0.7 | 0.455
CCOC(=O)C1=C(C)NC(C)=C(C(=O)OC)C1c1cccc(Cl)c1Cl (stereo not given) | . | -0.335
O=C1Cc2ccccc2N1c1ccccc1 | -0.2 | 0.27
COc1ccc(S(=O)Cc2ccc(C(=O)NCCc3ccc(SC)cc3)o2)cc1 (stereo not given) | 0.9 | -0.27
CCOC(=O)/C(C#N)=C/Nc1ccc(Oc2cccnc2)nc1 | . | -1.74
CC1(C)NC(=O)N(CCC(=O)N2CCN(S(=O)(=O)c3cccs3)CC2)C1=O | -0.3 | .
CSc1ccc(C(=O)O)s1 | -0.2 | 0.115&-3.12
Cc1ccc(NC(=O)c2ccc3nc[nH]c3c2)cc1C | -0.2 | .
O=C(O)CCCSc1ccc(Cl)cc1 | -1.1 | -0.945
COc1ccc(OC)c(CN2C(=O)CCC2(C)C(=O)NCCc2ccc(OC)c(OC)c2)c1 (stereo not given) | 0.85 | 0.005
CC(C)NC(=O)c1cc(Br)c(Br)s1 | 0.6 | .
CC(C)Oc1ccc(C2C3=C(CC(C)(C)CC3=O)NC3=C2C(=O)CC(C)(C)C3)cc1 | . | 13.4
The list continues:
SMILES | AID504770 | CapD inh
COc1ccc(OCc2nc(N)nc(SC)n2)cc1 | -0.25 | -0.575
O=C1CC(c2cccc(Br)c2)c2c(ccc3ccccc23)N1 (stereo not given) | . | 3.92
Cc1cc(NS(=O)(=O)c2ccc(NS(=O)(=O)c3ccc(Cl)cc3)cc2)no1 | . | -0.71
CN=c1scc(C)n1/N=C(\C)c1cccc(F)c1 | 0.2 | .
C#CCn1c(=O)c(=O)n(C(C)C)c2ccc(C(F)(F)F)cc21 | . | -0.355
CCn1nc(C)c(Br)c1-c1nc(-c2cccs2)no1 | 2 | -1.65
CCOC(=O)c1csc(NC(=O)CN2CCOCC2)n1 | -0.55 | 0.07
O=C(O)c1ccccc1NS(=O)(=O)/C=C/c1ccccc1 | -0.95 | i
C=CCNC(=O)CSc1nncn1-c1ccccc1 | 1.8 | .
CC(OC(=O)CSc1nc2ccccc2o1)C(=O)c1ccc(OC(F)F)cc1 (stereo not given) | 1.9 | .
CC1CCN(S(=O)(=O)c2cnc[nH]2)CC1 | -0.65 | -1.27
Cc1ccc(S(=O)(=O)Nc2c(C#N)c3nc4ccccc4nc3n2Cc2ccccc2)cc1 | 0.25 | .
COc1ccc(-c2cc(C(=O)NCC(C)C)no2)cc1OC | -0.05 | -0.085
c1ccc(Nc2nc3ccccc3o2)cc1 | 0.05 | 0.46
COC(=O)c1noc(C)c1-c1ccnn1S(=O)(=O)c1cccc(C(F)(F)F)c1 | -1.85 | 0.515
COc1ccc(C2=NN(CC(=O)N3CCCC3)C(=O)CC2)cc1 | -0.25 | -0.285
C=CCSc1n[nH]c(=O)n1-c1ccc(Cl)cc1 | -0.1 | 10.6
C=CCN1C(=O)C2(Oc3ccc(Br)cc3C3CC(c4ccc(OC)cc4)=NN32)c2ccccc21 (stereo not given) | . | -0.075
CCOC(=O)c1cnn(-c2ncnc3sc4c(c23)CCCC4)c1N | -0.55 | -0.035
CCOC(=O)CNC(=O)c1cc2c(n(-c3ccc(C)cc3)c1=O)CCCC2=O | . | 18.8
Fc1ccc(N2CCN(C3=Nc4cccc5cccc3c45)CC2)cc1 | -0.4 | .
CN1C2CC(OC(=O)[C@H](CO)c3ccccc3)C[C@H]1CC2O (stereo not given in full) | . | 0.31
O=C(CCNS(=O)(=O)c1ccc(Br)cc1)NC1CCCC1 | 1.35 | -0.295
O=C(NCc1nc2ccccc2[nH]1)c1cc(=O)n(-c2ccccc2)[nH]1 | . | 0.69
O=C(O)CCc1nc(-c2ccccn2)no1 | -0.95 | -0.69
Continued:
SMILES | AID504770 | CapD inh
O=C1CC(CCC(=O)NC2CC2)c2ccccc2N1 (stereo not given) | 0.65 | .
COc1ccccc1CCNC(=O)c1ccoc1C | -0.85 | -0.05
N#Cc1c(-c2ccccc2)nc2n1CCS2 | -0.8 | 0.38
Cc1cc(NS(=O)(=O)c2ccc(NS(=O)(=O)c3ccc(C#N)cc3)cc2)no1 | . | -0.845
COc1ccc(S(=O)(=O)c2c(C(=O)c3ccccc3)cnc3cc(OC)c(OC)cc23)cc1 | 2.15 | -0.34
Cc1ccc(-c2nc(N3CCN(c4ccc(F)cc4)CC3)c3ccccc3n2)cc1 | 1.95 | -0.315
Nc1nc(=S)nc(Cc2ccc3c(c2)CCC3)[nH]1 | 1.15 | .
c1cncc(-c2[nH]ncc2-c2cnccn2)c1 | . | -0.445
CCOc1ccc(-c2cccc(NS(C)(=O)=O)c2)nn1 | 0.2 | 0.285
O=C(Nc1cc(C(F)(F)F)cc(C(F)(F)F)c1)C(Sc1ccccn1)c1ccccc1 (stereo not given) | . | -0.365
CC(=O)NC(=O)c1cc2cc(Br)ccc2oc1=Nc1ccc(C)cc1 | . | 0.21
COc1ccc(CCCc2n[nH]c(=S)n2C)cc1C | -0.65 | .
O=C1c2oc3ccccc3c(=O)c2C(c2cccc(O)c2)N1Cc1ccccc1 (stereo not given) | -1.45 | 0.095
COc1ccc(N2C(=O)CSCC2=O)cc1OC | -0.75 | 0.225
CCC(C)c1ccccc1NC(=O)COc1ccc2c(c1)OCO2 (stereo not given) | 0 | .
COc1cc(OC)cc(C(=O)Nc2cc(C(=O)N(C)Cc3ccccc3)ccc2N2CC3CC(C2)c2cccc(=O)n2C3)c1 (stereo not given) | . | -0.165
O=C(Nc1ccccc1)c1cccc(=O)o1 | -0.35 | -1.92
CC(=O)c1ccc(N=C(C)c2sc3ccccc3c2O)cc1 | . | 0.07
c1ccc(CCn2nnc3ccccc32)cc1 | -0.75 | 66.2
COC(=O)c1c(C(=O)OC)c(C)n(Cc2cccnc2)c1C | 0.3 | 0.67
Cc1cccc(C2=NN3C(=O)c4ccccc4C3C2)c1 (stereo not given) | -0.35 | .
CC1(C)SC(=S)N(/N=C/c2ccccc2)C1N(O)C(=O)Nc1ccccc1 (stereo not given) | . | -0.93
COc1ccc(CCNC(=O)Cn2c(=O)n(CCc3ccccc3)c(=O)c3c(C)c(C)sc32)cc1OC | 0.75 | 0.91
COCCNC(=O)c1cc2c(=O)n3cccc(C)c3nc2n(Cc2cccnc2)c1=N | 1.25 | .
CCNc1nc(NCC)nc(OCCOC(=O)Nc2ccccc2)n1 | . | -0.185
(more compounds)
SMILES | AID504770 | CapD inh
COc1cc(C2C3=C(CC(c4ccccc4)CC3=O)Nc3ccccc3N2C(=O)CCC(=O)O)cc(OC)c1OC (stereo not given) | . | -0.21
O=C(NCCc1c[nH]c2ccccc12)NC1CC(=O)N(c2ccccc2)C1 (stereo not given) | 0.3 | .
COc1cccc(CNC(=O)C2=NNC(=O)CC2)c1 | -1.85 | .
COc1ccc(C=C2C(=O)NC(=O)NC2=O)cc1 | 0.3 | 0.095
CCOC(=O)c1sc2nc(CC(=O)OC)nc(NCc3ccccc3OC)c2c1C | . | 50.1
O=P(O)(c1ccccc1)c1nc2c(s1)CCCC2 | 0.2 | 0.15
CCOc1ccc2c(c1)C1=C(SC(C(=O)OC)=C(C(=O)OC)C13SC(C(=O)OC)=C(C(=O)OC)S3)C(C)(C)N2 | . | -0.83
Cc1nn(C)c(C)c1NC(=O)Nc1ccccc1 | 0.7 | -0.1
O=C1CC(c2cccc3ccccc23)c2ccc3ccccc3c2N1 (stereo not given) | . | 1.41
O=C(CCSCc1ccccc1F)N1CCc2ccccc21 | 0.7 | 0.13
CC(C)NC(=O)CSc1nnc(SCC(=O)NC(C)C)s1 | -0.15 | .
O=C(/C=C\c1ccccc1)Nc1c(-c2cccs2)nc2ccccn12 | -0.5 | -0.885
Cc1ccc(NC(=O)C2C(c3ccccc3)C=CC(c3ccccc3)C2C(=O)O)cc1C (stereo not given) | -0.75 | 0.085
CCCCn1c2ccc(Cl)cc2c2nc3ccccc3nc21 | 0.55 | 0.34
CCOc1ccccc1N(C)C(=O)c1cc(S(=O)(=O)NCc2ccccc2Cl)ccc1F | . | 0.46
Cn1c(=O)c2c(nc(N3CCCCC3)n2CC(=O)C23CC4CC(CC(C4)C2)C3)n(C)c1=O | . | 0.28
CN1CC=C(/C=C/c2ccc(-c3ccccc3)cc2)CC1 | 1.8 | .
COc1c(F)c(F)c(C(=O)O)c(Nc2ccccc2)c1F | 0.5 | -0.395

Structural class, the entries above with fluorine (12)
SMILES | AID504770 | CapD inh
CCOC(=O)c1ccc2nc(C(F)(F)F)cc(N3CCN(Cc4ccccc4)CC3)c2c1 | . | 3.48
Nc1nc2c(-c3ccc(Cl)cc3Cl)nnn2c2cc(C(F)(F)F)cnc12 | . | 0.67
CN=c1scc(C)n1/N=C(\C)c1cccc(F)c1 | 0.2 | .
C#CCn1c(=O)c(=O)n(C(C)C)c2ccc(C(F)(F)F)cc21 | . | -0.355
CC(OC(=O)CSc1nc2ccccc2o1)C(=O)c1ccc(OC(F)F)cc1 (stereo not given) | 1.9 | .
COC(=O)c1noc(C)c1-c1ccnn1S(=O)(=O)c1cccc(C(F)(F)F)c1 | -1.85 | 0.515
Fc1ccc(N2CCN(C3=Nc4cccc5cccc3c45)CC2)cc1 | -0.4 | .
Cc1ccc(-c2nc(N3CCN(c4ccc(F)cc4)CC3)c3ccccc3n2)cc1 | 1.95 | -0.315
O=C(Nc1cc(C(F)(F)F)cc(C(F)(F)F)c1)C(Sc1ccccn1)c1ccccc1 (stereo not given) | . | -0.365
O=C(CCSCc1ccccc1F)N1CCc2ccccc21 | 0.7 | 0.13
CCOc1ccccc1N(C)C(=O)c1cc(S(=O)(=O)NCc2ccccc2Cl)ccc1F | . | 0.46
COc1c(F)c(F)c(C(=O)O)c(Nc2ccccc2)c1F | 0.5 | -0.395
